# Assay outcomes (PubChem BioAssay)
# Hck-Nef inh – inhibitors of Nef-activated human Hck kinase, primary screen, biochemical, Z-Lyte FRET, 384-well, Hck-YEEI; AID 463187, 2010; inhibition, % at 20 µM; Recombinant Hck-YEEI plus Nef, Z-Lyte FRET kinase assay; hit rate 0.68% among 220,000;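 active = Hck-Nef kinase inhibition above about 50%, limit read from the data; inactive = inhibition below that limit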;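 also: 0% = DMSO with Hck plus Nef and 100% = Hck alone without Nef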
# 14-3-3 Bad PPI – inhibitors of 14-3-3 zeta/Bad binding, primary screen, biochemical, TR-FRET, bovine 14-3-3 zeta. 14-3-3 protein zeta/delta (Bos taurus), P63103. TR-FRET 14-3-3zeta/Dy647-pBad peptide displacement, 1 h. inhibition, % at 21.7 µM. hit rate 0.71% among 220,000. AID 781, 2007;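 active = inhibition above about 70%, limit read from the data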;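 also: 0% = full 14-3-3 plus peptide FRET controls and 100% = background without 14-3-3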
# Target sequence (P63103 whole entry, looked up): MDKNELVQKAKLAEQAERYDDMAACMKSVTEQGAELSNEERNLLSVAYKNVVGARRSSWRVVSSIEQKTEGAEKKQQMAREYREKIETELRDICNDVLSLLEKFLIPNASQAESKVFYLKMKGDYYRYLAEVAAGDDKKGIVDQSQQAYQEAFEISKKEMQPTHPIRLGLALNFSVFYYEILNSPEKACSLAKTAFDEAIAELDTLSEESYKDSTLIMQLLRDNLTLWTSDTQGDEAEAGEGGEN
# hK5 inh – human KLK5 protease inhibitors, primary screen, biochemical, 1536-well; inhibition, % at 5 µM; recombinant hK5, fluorogenic AMC substrate cleavage; AID 873, 2007; Kallikrein-5 (Homo sapiens), Q9Y337; hit rate 0.59% among 210,000;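 active = inhibition of 40% or more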;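 also: 0% = enzyme controls without compound and 100% = no-enzyme blanks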
# Target sequence (Q9Y337 67-293 limits assumed): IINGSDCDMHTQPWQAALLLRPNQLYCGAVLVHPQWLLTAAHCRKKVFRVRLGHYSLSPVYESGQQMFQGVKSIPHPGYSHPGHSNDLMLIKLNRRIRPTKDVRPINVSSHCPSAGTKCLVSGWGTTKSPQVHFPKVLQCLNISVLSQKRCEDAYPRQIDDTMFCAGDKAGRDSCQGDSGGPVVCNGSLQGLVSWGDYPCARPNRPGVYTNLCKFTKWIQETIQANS
# FXIIa inh 1536 – human FXIIa protease inhibitors, primary screen, biochemical, 1536-well; inhibition, % at 5 µM; Coagulation factor XII (Homo sapiens), P00748; AID 800, 2007; purified FXIIa, Boc-QGR-AMC fluorogenic substrate, 2 h; hit rate 0.3% among 220,000; in the data active = inhibition above about 40%;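 also: 0% = enzyme with no compound and 100% = blank without enzyme; many of its hits are not listed in these tables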
# FXIa inh – human FXIa protease inhibitors, primary screen, biochemical, 1536-well. purified FXIa, Boc-Glu-Ala-Arg-AMC fluorogenic substrate. inhibition, % at 5 µM. hit rate 0.14% among 220,000;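 active = inhibition of at least 40%; inactive = inhibition below 40%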;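 also: fluorescence of freed AMC excited at 355 nm; 0% = enzyme without compound and 100% = no enzyme blank; many of its hits are not listed in these tables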
# An asterisk follows results filed as active; & = joins results of further samples; [ ] = dose if it differs, or a comment. This is a subset; rates above refer to the full screens.
# Results follow in this order: Hck-Nef inh, 14-3-3 Bad PPI, hK5 inh, FXIIa inh 1536, FXIa inh
- Cc1ccc2cc(C)c3nnc(SCC(=O)N4CCN(C(=O)c5ccco5)CC4)n3c2c1
 : 1, 2, 0, 20, 6
- NCCc1ccc(O)c(O)c1
 : -2, -1, -13, 10, 5
- CC(=O)O[C@H]1C[C@@]2(C)[C@@H](C[C@@H](O)[C@H]3[C@@]4(C)CC[C@@H](O)[C@@H](C)C4CC[C@@]32C)/C1=C(\CCC=C(C)C)C(=O)O (some centres undefined)
 : 14, -5, -14, 3, 6
- NCCS
 : -8, 5, -1, 14, 6
- CC(C)NC[C@H](O)COc1cccc2[nH]ccc12
 : 34, -5, 3, 7, 2
- COc1cc(NS(=O)(=O)c2ccc(N)cc2)nc(OC)n1
 : 0, -2, -11, 6, 7
- CCCCC[C@H](O)/C=C/[C@@H]1[C@@H](C/C=C\CCCC(=O)O)[C@@H](O)C[C@H]1O
 : -6, -3, -2, 14, 17
- C(=C\c1ccccc1)/CN1CCN(C(c2ccccc2)c2ccccc2)CC1
 : -7, -4, -5, 10, -2
- CC(=O)O[C@]1(C(C)=O)CC[C@H]2[C@@H]3C=C(C)C4=CC(=O)CC[C@]4(C)[C@H]3CC[C@@]21C
 : -3, -6&1, -7, 6, -5
- CCN(CC)CC#CCOC(=O)C(O)(c1ccccc1)C1CCCCC1 (centres undefined)
 : 1, 2, -6, 11, 2
- CN(C)C(=O)C(CCN1CCC(O)(c2ccc(Cl)cc2)CC1)(c1ccccc1)c1ccccc1
 : -1, -5, -10, 12, 21
- CC(=O)[C@H]1CC[C@H]2[C@@H]3CCC4=CC(=O)CC[C@]4(C)[C@H]3CC[C@]12C
 : -3, 0&-1, -10, 6, -5
- Cc1ccccc1C(OCCN(C)C)c1ccccc1 (centres undefined)
 : 1&23, 1&-14, -11&5, 8&7, 0&2
- CN(C)CCN(Cc1cccs1)c1ccccn1
 : -6, 0, -11, 0, -8
- O=S(=O)(Nc1nnc(-c2ccccc2)s1)c1ccc(Cl)cc1
 : 0, 36[fluorescence artefact?], -4, -6, 0
- C[C@]12CC[C@@H]3c4ccc(O)cc4CC[C@H]3[C@@H]1CCC2=O
 : 1, -5, -12, 10, 0
- CC(=O)OCC(=O)[C@@]1(O)CC[C@H]2[C@@H]3CCC4=CC(=O)C=C[C@]4(C)[C@H]3[C@@H](O)C[C@@]21C
 : 3, 1, -14, 5, 6
- O=C(NCC1CCCCN1)c1cc(OCC(F)(F)F)ccc1OCC(F)(F)F (centres undefined)
 : -1, -2, -9, 11, 1
- O=C(O)c1ccccc1O
 : -2, 2, -10, 9, 6
- CCN(CC)C(=S)SSC(=S)N(CC)CC
 : -22, -9, -3, 13, 11
- COc1cccc(Nc2nc(NCC3CCCO3)c3ccccc3n2)c1 (centres undefined)
 : 1, 51[fluorescence artefact?], -20, 10, 2
- NCCc1cnc[nH]1
 : -7&2, -8&-3, -10&-12, 13&3, 8&-1

# Eleven of these compounds, set out differently:
Hck-Nef inh	14-3-3 Bad PPI	hK5 inh	FXIIa inh 1536	FXIa inh	mol
1	2	0	20	6	Cc1ccc2cc(C)c3nnc(SCC(=O)N4CCN(C(=O)c5ccco5)CC4)n3c2c1
-2	-1	-13	10	5	NCCc1ccc(O)c(O)c1
14	-5	-14	3	6	CC(=O)O[C@H]1C[C@@]2(C)[C@@H](C[C@@H](O)[C@H]3[C@@]4(C)CC[C@@H](O)[C@@H](C)C4CC[C@@]32C)/C1=C(\CCC=C(C)C)C(=O)O (some centres undefined)
-8	5	-1	14	6	NCCS
34	-5	3	7	2	CC(C)NC[C@H](O)COc1cccc2[nH]ccc12
0	-2	-11	6	7	COc1cc(NS(=O)(=O)c2ccc(N)cc2)nc(OC)n1
-6	-3	-2	14	17	CCCCC[C@H](O)/C=C/[C@@H]1[C@@H](C/C=C\CCCC(=O)O)[C@@H](O)C[C@H]1O
-7	-4	-5	10	-2	C(=C\c1ccccc1)/CN1CCN(C(c2ccccc2)c2ccccc2)CC1
-3	-6&1	-7	6	-5	CC(=O)O[C@]1(C(C)=O)CC[C@H]2[C@@H]3C=C(C)C4=CC(=O)CC[C@]4(C)[C@H]3CC[C@@]21C
1	2	-6	11	2	CCN(CC)CC#CCOC(=O)C(O)(c1ccccc1)C1CCCCC1 (centres undefined)
-1	-5	-10	12	21	CN(C)C(=O)C(CCN1CCC(O)(c2ccc(Cl)cc2)CC1)(c1ccccc1)c1ccccc1
